Vif A3G: HIV-1 Vif–A3G interaction blockers – biochemical, TR-FRET, GST-Vif 1-94, biotin-A3G peptide, dose response retest, primary screen (AID 1117319) | TR-FRET GST-Vif / biotin-A3G peptide binding; higher % means a stronger effect; test concentration not given here; strong numbers were not always called active | one-dose inhibition, %; IC50 in µM for titrated hits | actives 0.57% (n = 260,000);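 active = above the screen mean plus three standard deviations and confirmed in dose response; inconclusive = results disagree or hit not tested in dose response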;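 also: Vif residues 1-94 fused to GST binding biotinylated APOBEC3G peptide 110-148; 0% = full assay without inhibitor and 100% = GST in place of GST-Vif; retest series ran down from 100 µM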
LANA-H2A inh: blocks KSHV LANA binding to histone H2A/H2B; Q9QR71; cell-free LANA-H2A/H2B peptide, fluorescence polarization; inhibition, % (concentration not given with the values); actives 0.6% (n = 320,000); AID 2629; in the data active = inhibition mostly above about 10%, no sharp cut-off; inactive = mostly below about 6.7%;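 also: stock transfer was 7.5 nL into about 10 µL; 0% = median of vehicle wells and 100% = median of positive control wells; one replicate is shown; the record names a cut of 25% in any replicate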
Beta apoptosis: blocks beta cell apoptosis; INS-1E cytokine-induced death, ATP luminescence, 48 h; percent of positive-control rescue, neutral wells zero; protection from apoptosis, % (test concentration not listed); actives 0.8% (n = 300,000); AID 435005;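 active = all replicates at 75% or more, or half of them and the mean; inconclusive = half reach 75% but not the mean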;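 also: 0% = cytokine-treated negative control wells and 100% = positive control rescue; higher means more ATP so stronger rescue from cytokine killing; wells of about 40 µL received 100 nL stock; the first replicate is given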
Calb FLC: affects C. albicans growth with fluconazole; growth inhibition, % (test concentration not listed); actives 0.57% (n = 300,000); C. albicans CaCi-2 (fluconazole-resistant clinical isolate) + fluconazole, Alamar Blue growth, 48 h;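 active = most replicates above 75%; inconclusive = exactly half above 75%; inactive = most below 75%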;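 also: all wells also contain fluconazole at 8 µg/ml as a sub-toxic cotreatment; 0% = median of DMSO wells and 100% = median of geldanamycin control wells; wells of about 8 µL received 7.5 nL stock; the first replicate is given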
AF4-AF9 inh: MLL-AF4/AF9 protein interaction inhibition; P42568; AID 651704; inhibition, % at 10 µM; AlphaScreen, biotin-AF4 peptide binding to FLAG-AF9; actives 0.47% (n = 350,000);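 active = every replicate reaching a set inhibition limit, whatever the replicate mean, cut at about 25% in these data; inconclusive = mean inhibition reaches that limit but some replicates miss it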;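 also: 0% = plate neutral control median and 100% = total signal loss; the record names both 10 and 1 µM as test concentration; the first replicate is given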
Target sequence (P42568 whole entry, looked up): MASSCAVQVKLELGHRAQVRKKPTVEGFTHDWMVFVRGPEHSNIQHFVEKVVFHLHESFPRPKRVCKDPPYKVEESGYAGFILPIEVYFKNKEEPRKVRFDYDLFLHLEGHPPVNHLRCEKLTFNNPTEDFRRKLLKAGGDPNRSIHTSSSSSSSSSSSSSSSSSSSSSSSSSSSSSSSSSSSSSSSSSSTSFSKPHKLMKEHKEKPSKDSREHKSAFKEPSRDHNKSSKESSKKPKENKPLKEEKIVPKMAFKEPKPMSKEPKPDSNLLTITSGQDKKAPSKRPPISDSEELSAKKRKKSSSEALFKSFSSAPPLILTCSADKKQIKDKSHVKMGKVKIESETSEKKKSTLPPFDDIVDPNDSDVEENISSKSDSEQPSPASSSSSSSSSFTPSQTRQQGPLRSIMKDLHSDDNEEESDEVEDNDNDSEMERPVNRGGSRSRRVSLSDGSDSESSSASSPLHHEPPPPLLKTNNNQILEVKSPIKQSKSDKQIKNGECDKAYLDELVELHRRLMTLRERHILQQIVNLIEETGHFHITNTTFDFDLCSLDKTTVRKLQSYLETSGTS
T cruzi inh: T. cruzi replication inhibition; T. cruzi beta-gal in NIH3T3, luminescence, 90 h; inhibition, % (test concentration not listed); actives 1.4% (n = 300,000); AID 1885;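 active = mean inhibition across valid replicates above about 55%, limit read from the data; inconclusive = mean below that limit but half or more replicates reach it; inactive = mean below it, under half of replicates reach it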;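 also: signal also drops with host cell toxicity which is not excluded here; 0% = plate median of DMSO wells and 100% = zero luminescence signal; higher percent means less beta-gal luminescence so fewer parasites; stock transfer was 50 nL into about 50 µL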
Bfl-1 A1 inh: inhibitors of the anti-apoptotic protein A1, read as caspase activation; MEF A1-2A-BIM cells, Caspase-Glo 3/7 luminescence, 3 h; percent of clofoctol response, vehicle zero; caspase activation, % (concentration not given with the values); actives 0.066% (n = 330,000); AID 2462;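 active = over half of replicate activation scores above 10%, or exactly half above 10 with the replicate mean above 10; inconclusive = replicate mean below 10 yet half the replicates above 10; inactive = over half of replicates below 10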;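 also: wells of about 30 µL received 50 nL stock; many hits fall short of the cut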
RanGTP-Imp inh: disruptors of Ran-importin-beta complex formation – biochemical, FRET, CFP-Ran, YFP-importin-beta, homogeneous, primary screen | cell-free CFP-Ran/YFP-importin-beta FRET ratio | inhibition, % (test concentration not listed) | actives 1.1% (n = 300,000);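 active = most replicates above 15%; inconclusive = exactly half above 15%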;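 also: 0% = DMSO wells and 100% = Ran loaded with GDP instead of GTP; wells of about 40 µL received 100 nL stock; the first replicate is given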
An asterisk follows results filed as active.

How did O=C(Cc1sc(-c2ccccc2Cl)nc1-c1ccccc1)Nc1ccc(F)cc1 do in these assays?
Vif A3G: 12.7%; LANA-H2A inh: 1.3; Beta apoptosis: 1.3; Calb FLC: 0.9; T cruzi inh: 4.4; Bfl-1 A1 inh: -0.9; RanGTP-Imp inh: 0.9

Results for COc1cccc(OCc2cc(C(=O)N(Cc3nccn3C)C(C)C)no2)c1 ?
LANA-H2A inh: 4.0; Calb FLC: -1.4; AF4-AF9 inh: 3.5; T cruzi inh: -2.3; Bfl-1 A1 inh: -0.3; RanGTP-Imp inh: 1.7

How did O=C(NNc1cccc(Cl)n1)c1c(Cl)cccc1Cl do in these assays?
Vif A3G: 0.4%; LANA-H2A inh: 2.5; Beta apoptosis: -1.9; Calb FLC: 11.6; T cruzi inh: -20.2; Bfl-1 A1 inh: 0.0; RanGTP-Imp inh: -2.1

How did COc1ccc(Cn2nnnc2CN(Cc2cc3cc(C)ccc3[nH]c2=O)C2CCCC2)cc1 do in these assays?
Vif A3G: 11.8%; LANA-H2A inh: 4.1; Beta apoptosis: -8.1; Calb FLC: 8.9; AF4-AF9 inh: 3.3; T cruzi inh: -4.3; Bfl-1 A1 inh: 0.3; RanGTP-Imp inh: -0.3

What do the screens show for `O=C(CCC(=O)OCc1ccc(C(=O)Oc2ccc(Cl)cc2)cc1)Nc1ccccc1`?
Vif A3G: inconclusive; LANA-H2A inh: -3.1; Beta apoptosis: -5.5; Calb FLC: -2.4; T cruzi inh: -7.1; Bfl-1 A1 inh: 0.0; RanGTP-Imp inh: 0.3

How did COc1ccccc1C(=O)C1CCCN(C(=O)c2cc(C(C)C)no2)C1 (stereo not given) do in these assays?
Vif A3G: -7.9%; LANA-H2A inh: -1.7; Beta apoptosis: 0.5; Calb FLC: 1.2; AF4-AF9 inh: -0.3; T cruzi inh: -3.9; Bfl-1 A1 inh: 0.9; RanGTP-Imp inh: 0.7

How did CC(C)Cn1c(N)c(C(=O)COC(=O)/C=C/c2ccccc2)c(=O)n(C)c1=O do in these assays?
Vif A3G: -1.1%; LANA-H2A inh: -5.4; Calb FLC: 1.0; AF4-AF9 inh: 3.8; T cruzi inh: -0.9; Bfl-1 A1 inh: -0.5; RanGTP-Imp inh: -0.1

What do the screens show for `CCOc1ccccc1C(=O)N1CCOCC1`?
Vif A3G: -5.5%; LANA-H2A inh: 0.4; Beta apoptosis: -5.7; Calb FLC: 1.8; T cruzi inh: -0.1; Bfl-1 A1 inh: -0.1; RanGTP-Imp inh: 5.5

How did CC1(C)CCc2cc(S(=O)(=O)N3CCN(S(=O)(=O)c4c(F)cccc4F)CC3)ccc2O1 do in these assays?
LANA-H2A inh: 1.0; Beta apoptosis: 1.8; AF4-AF9 inh: -2.6; Bfl-1 A1 inh: 0.1

Results for CCCC(O)(c1ccc(Br)cc1)C(CN1CCOCC1)c1ccc(Cl)cc1 (stereo not given) ?
Vif A3G: -2.8%; LANA-H2A inh: 6.6; Beta apoptosis: 12.7; Calb FLC: -5.8; AF4-AF9 inh: -2.6; T cruzi inh: -6.7; Bfl-1 A1 inh: -0.5; RanGTP-Imp inh: -1.6

How did CCN(CC)CCNC(=O)c1ccc(NC(=O)c2cn(-c3ccccc3)nc2-c2cccs2)cc1 do in these assays?
Vif A3G: 21.1%; LANA-H2A inh: 1.7; Beta apoptosis: 78.5*; Calb FLC: -8.7; AF4-AF9 inh: 3.1; T cruzi inh: 45.7; Bfl-1 A1 inh: 0.1; RanGTP-Imp inh: -2.0

How did C=CCn1c(=N)n(CC(O)COc2ccc(OC)cc2)c2ccccc21 (stereo not given) do in these assays?
Vif A3G: -5.7%; LANA-H2A inh: -2.4; Beta apoptosis: 3.5; Calb FLC: -13.8; AF4-AF9 inh: -0.6; T cruzi inh: -0.9; Bfl-1 A1 inh: 0.4; RanGTP-Imp inh: -5.8

What do the screens show for `CN(C)N(Cc1ccccc1)C(=O)C(O)(c1ccccc1)c1ccccc1`?
LANA-H2A inh: 3.8; Beta apoptosis: -3.6; Calb FLC: 2.5; AF4-AF9 inh: -30.0; T cruzi inh: -11.6; Bfl-1 A1 inh: -0.7; RanGTP-Imp inh: 2.0

Results for CC/C(O)=C1\C(=O)CCCC1=NCCc1c(C)[nH]c2ccc(C)cc12 ?
LANA-H2A inh: 8.2; Beta apoptosis: -4.3; Calb FLC: 3.9; AF4-AF9 inh: 9.2; T cruzi inh: -5.9; Bfl-1 A1 inh: 0.1; RanGTP-Imp inh: 2.2

What do the screens show for `CCc1cccc(C)c1NS(=O)(=O)Cc1ccccc1`?
LANA-H2A inh: 2.8; Beta apoptosis: -9.0; Calb FLC: -5.1; AF4-AF9 inh: 2.8; T cruzi inh: 5.3; Bfl-1 A1 inh: -0.3; RanGTP-Imp inh: -3.4

How did CCC1CCCCN1C(=O)CSC1=NN2CCCC(=O)N=C2S1 (stereo not given) do in these assays?
LANA-H2A inh: 3.4; Beta apoptosis: 3.3; Calb FLC: -11.9; AF4-AF9 inh: 3.5; T cruzi inh: 0.9; Bfl-1 A1 inh: 0.1; RanGTP-Imp inh: 0.8

Results for CCCS(=O)(=O)c1c(S(=O)(=O)CCC)c2ccc(C(N)=O)cn2c1C(=O)OC ?
Vif A3G: 0.4%; LANA-H2A inh: 4.7; Beta apoptosis: 3.9; Calb FLC: 23.7; AF4-AF9 inh: -0.4; T cruzi inh: -1.6; Bfl-1 A1 inh: 0.4; RanGTP-Imp inh: -2.7

How did CCOC(=O)C1=CC[C@@H](c2ccccc2Cl)N(S(=O)(=O)c2ccc(C)cc2)[C@H]1C(=O)OCC do in these assays?
LANA-H2A inh: -2.7; Beta apoptosis: 7.2; AF4-AF9 inh: -3.1; Bfl-1 A1 inh: 0.6

What do the screens show for `CC(=O)NC(CC(=O)NC1CCCCCC1)c1ccccc1` (stereo not given)?
LANA-H2A inh: -6.3; Beta apoptosis: -2.7; Calb FLC: -12.3; T cruzi inh: -16.7; Bfl-1 A1 inh: 0.5; RanGTP-Imp inh: -0.3

Results for COc1cccc(NC(=O)C2C3C=CC4(O3)C2C(=O)N(CCCN2CCC(C)CC2)C4C(=O)NC2CCCCC2)c1 (stereo not given) ?
LANA-H2A inh: 1.0; Beta apoptosis: -6.4; Calb FLC: -13.1; AF4-AF9 inh: -1.2; T cruzi inh: 7.7; Bfl-1 A1 inh: -0.1; RanGTP-Imp inh: 1.1

How did CCCCCCc1c(O)nc(SCCN2CCOCC2)[nH]c1=O do in these assays?
LANA-H2A inh: -0.7; Calb FLC: 0.8; AF4-AF9 inh: -8.2; T cruzi inh: 0.4; Bfl-1 A1 inh: -0.1; RanGTP-Imp inh: -4.3

What do the screens show for `COCc1nc2ccccc2n1Cc1ccccc1C`?
Vif A3G: -2.7%; LANA-H2A inh: -2.7; Beta apoptosis: -9.4; Calb FLC: inconclusive; AF4-AF9 inh: -0.9; T cruzi inh: -60.7; Bfl-1 A1 inh: 0.4; RanGTP-Imp inh: 1.9

Results for Cc1ccc(C(=O)NC(=S)NNC(=O)c2ccc([N+](=O)[O-])cc2)cc1 ?
Vif A3G: 3.4%; LANA-H2A inh: 3.0; Beta apoptosis: 1.3; Calb FLC: 2.5; AF4-AF9 inh: 1.1; T cruzi inh: 10.5; Bfl-1 A1 inh: 0.6; RanGTP-Imp inh: 0.8

How did COc1ccccc1-n1c(-c2ccccc2)n[nH]c1=S do in these assays?
Vif A3G: -7.6%; LANA-H2A inh: -1.1; Beta apoptosis: -1.8; Calb FLC: 10.4; AF4-AF9 inh: -6.6; T cruzi inh: -8.6; Bfl-1 A1 inh: -0.8; RanGTP-Imp inh: 3.2

What do the screens show for `COc1ccc([C@@H]2[C@@H]3C(=O)N(C(C)(C)C)C(=O)[C@@H]3[C@]3(Cc4ccc(Cl)cc4)C(=O)N(c4ccc(C)cc4)C(=O)N23)cc1`?
LANA-H2A inh: -7.3; Beta apoptosis: 0.9; Calb FLC: 1.5; AF4-AF9 inh: -28.6; T cruzi inh: 23.8; Bfl-1 A1 inh: 0.2; RanGTP-Imp inh: -0.9

Results for Cc1ccc2cc(CN(CC3CCCO3)S(=O)(=O)c3ccc4c(c3)OCCO4)c(=O)[nH]c2c1C (stereo not given) ?
LANA-H2A inh: 0.2; Beta apoptosis: -2.0; Calb FLC: -10.8; AF4-AF9 inh: -14.2; T cruzi inh: 15.2; Bfl-1 A1 inh: -0.2; RanGTP-Imp inh: -2.6

How did CCOc1ccc(OCC)c(NC(=O)CN(c2ccc(OC)cc2)S(=O)(=O)c2c(C)noc2C)c1 do in these assays?
Vif A3G: 5.4%; LANA-H2A inh: 0.5; Beta apoptosis: -1.1; Calb FLC: 12.9; AF4-AF9 inh: 1.2; T cruzi inh: 29.4; Bfl-1 A1 inh: -1.4; RanGTP-Imp inh: -3.8

Results for CCC(C)Sc1nnc(Cc2cc(=O)[nH]c(=O)[nH]2)n1-c1ccc(F)cc1 (stereo not given) ?
Vif A3G: 15.7%; LANA-H2A inh: 1.4; Beta apoptosis: -6.2; Calb FLC: -1.4; AF4-AF9 inh: 4.4; T cruzi inh: -1.1; Bfl-1 A1 inh: -0.1; RanGTP-Imp inh: 3.0

Results for CC(C)Cn1c(N)c(C(=O)COC(=O)c2cc(-c3ccco3)nc3ccccc23)c(=O)n(C)c1=O ?
Vif A3G: inconclusive; LANA-H2A inh: -1.6; Beta apoptosis: 8.3; Calb FLC: 6.7; AF4-AF9 inh: -3.2; T cruzi inh: 4.6; Bfl-1 A1 inh: 0.8; RanGTP-Imp inh: 1.8

What do the screens show for `COc1ccc(NC(=O)CN2CCN(c3ccc(C)cc3C)CC2)cc1`?
LANA-H2A inh: 0.8; Beta apoptosis: -0.6; Calb FLC: 16.0; AF4-AF9 inh: -1.9; T cruzi inh: 8.3; Bfl-1 A1 inh: 0.5; RanGTP-Imp inh: -0.2

What do the screens show for `CCOCCCn1c(SCC(=O)NC(C)(C)C)nc2ccccc2c1=O`?
Vif A3G: -6.0%; LANA-H2A inh: 1.6; Beta apoptosis: -1.6; Calb FLC: -14.0; T cruzi inh: 10.2; Bfl-1 A1 inh: 0.2; RanGTP-Imp inh: -2.7

What do the screens show for `O=C(Nc1nnc(C2CCCCC2)s1)C1CC(=O)N(c2ccc(F)cc2)C1` (stereo not given)?
LANA-H2A inh: 0.0; Beta apoptosis: -4.3; Calb FLC: -6.1; AF4-AF9 inh: 0.1; T cruzi inh: -1.1; Bfl-1 A1 inh: 3.2; RanGTP-Imp inh: 5.6

How did Cc1cc(C)n2nc(SCC(=O)N3CCN(c4ccccc4)CC3)nc2n1 do in these assays?
Vif A3G: 5.0%; LANA-H2A inh: -7.6; Beta apoptosis: -2.4; AF4-AF9 inh: 4.6; Bfl-1 A1 inh: 1.2

What do the screens show for `CC1CCN(C2(O)C(=O)Nc3ccc(Cl)cc32)CC1` (stereo not given)?
LANA-H2A inh: -0.7; Calb FLC: 0.0; AF4-AF9 inh: -5.4; T cruzi inh: -11.3; Bfl-1 A1 inh: 0.8; RanGTP-Imp inh: -0.4

What do the screens show for `Nc1n[nH]c(=S)n1-c1ccc(Cl)cc1`?
Vif A3G: 16.2%; LANA-H2A inh: -5.0; Beta apoptosis: -0.4; Calb FLC: -3.3; AF4-AF9 inh: -0.9; T cruzi inh: 1.4; Bfl-1 A1 inh: 1.0; RanGTP-Imp inh: 1.3
